Bioassay records deposited in PubChem BioAssay by National Center for Advancing Translational Sciences (NCATS).
gsp antag = gsp mutant antagonism; gsp-mutant cells, cAMP HTRF, 30 min; control for the full effect not named in the record; Potency, µM (titrated, usually from 76.9 µM), for the others: top-dose activity change, negative = inhibition, hits mostly inhibitors; actives 0.4% (n = 340,000); AID 624288; active = falling curve of any shape with a large fitted effect; inconclusive = falling curve, mostly with a smaller effect; inactive = flat or rising curve; cell line not stated here;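 note: intracellular cAMP measured with PDE inhibitor Ro 20-1724 present during compound exposure; potency is the fitted concentration of half-maximal effect; % is set by controls: 0 for no effect and ±100 for the full control effect; nearly all actives have a fitted effect of over 65% in size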
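Measurement of cellular cAMP by homogeneous time-resolved fluorescence following a 30 min compound exposure at 37C. The PDE inhibitor […] was present throughout; the assay buffer was DPBS with 0.05% BSA and 0.005% Tween 20.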
TRPV1 potentiator = human TRPV1 potentiation; TRPV1-expressing cells, Fluo-8 calcium influx, capsaicin EC20 potentiation; host cell line not named in the record; control for the full effect not named in the record; potentiation, % at 8.33 µM; actives 0.02% (n = 320,000); active means potentiation above 80%; inconclusive means 30% to 80%; inactive means below 30%; note: 0% is about no effect
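Cells expressing TRPV1 were dye-loaded with Fluo-8 and read kinetically: 10 s baseline, 3 min after compound (agonist portion), then 2 min after EC20 capsaicin (allosteric enhancer portion). Calcium-bound dye fluorescence at 480/520 nm.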
gsp agonist = agonists of gsp mutant (McCune-Albright syndrome). gsp mutant cells, cAMP HTRF, 30 min; control for the full effect not named in the record. Potency, µM (titrated, usually from 76.9 µM), for inactives: top-dose activation (cAMP increase), most hits filed as activators. actives 0.13% (n = 340,000); active = well fitted activation curve with a large enough effect; inconclusive = small, poorly fitted or top-dose-only effect, or another doubt; inactive = no such curve, though single readings can be large or run the other way; cell line not stated here;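 note: phosphodiesterase inhibitor Ro 20-1724 added with compounds to block cAMP breakdown; potency is the fitted concentration of half-maximal effect; nearly all actives have a fitted effect of over 60% in size; about a fifth of the inactives were tested at one dose only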
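Cells stably selected in G418 were plated at 2000/well, grown 16-24 hr, then given compounds in DMSO with the PDE inhibitor […] (300 uM solution added) for 30 min at 37C; cAMP was read by HTRF.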
ClpP mod = qHTS Assay for Activators of ClpP | ATP-dependent Clp protease proteolytic subunit (Bacillus subtilis (strain 168)), P80244 | purified B. subtilis ClpP, FRET peptide cleavage, 20 min | Potency, µM (series often up to 57.5 µM), for inactives: at the top dose activity change, negative = active | actives 1.9% (n = 340,000); active = well fitted falling curve with a large enough effect; inconclusive = small, poorly fitted or top-dose-only effect; inactive = no such curve, though single readings can be large or run the other way; note: potency is the fitted concentration of half-maximal effect; the source files actives as falling curves though it sought activators and does not explain the sign; nearly all actives have a fitted effect of over 65% in size; many hits overshoot -100%
Target sequence (P80244 whole entry, looked up): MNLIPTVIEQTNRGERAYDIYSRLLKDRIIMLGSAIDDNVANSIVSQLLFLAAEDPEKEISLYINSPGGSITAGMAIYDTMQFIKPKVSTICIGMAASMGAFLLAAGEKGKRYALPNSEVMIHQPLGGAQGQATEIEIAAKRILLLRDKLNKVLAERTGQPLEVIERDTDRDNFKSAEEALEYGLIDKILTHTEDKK
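ClpP 10 microg/mL final, pH 8 Tris/KCl buffer with BSA, glycerol, Tween-20; compound pinned in; FRET-FV substrate; RT 20 min; Ex320/Em430; ΔFRET vs ADEP 5.8 microM, DMSO, no enzyme.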
Menin MLL FP FL = displaces fluorescein MLL peptide from human menin. Fluorescence polarization, fluorescein-MLL peptide displacement from menin. FP activity change, % at 61.4 µM. 290,000 tested, under 10 active; inconclusive = falling polarisation curve, or a change in total fluorescence; inactive = total fluorescence flat and polarisation flat or rising; no compound was filed as active; the % refers to the polarisation; negative = inhibition;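 note: % of control where 0% means no effect; inhibitors lower the polarisation; unlabelled MLL peptide was the positive control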
Sfp PPTase inh = blocks B. subtilis Sfp PPTase activity; Potency, µM, without a hit: max response, negative = inhibition, actives largely listed as inhibitors; Q9F4F7; actives 3.5% (n = 310,000); Biochemical Sfp PPTase activity, qHTS; active = well fitted inhibition curve with a large enough effect; inconclusive = small, poorly fitted or top-dose-only effect, or another doubt; inactive = no such curve, though single readings can be large or run the other way;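 note: the enzyme is Sfp with the accession as filed and its product quenches rhodamine fluorescence; potency is the fitted concentration of half-maximal effect; 0% = enzyme reaction without inhibitor and -100% = no enzyme wells; top concentration of the series not given in the record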
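After 15 min at room temperature with compound, 15 nM Sfp received 5 uM rhodamine-CoA plus 12.5 uM BHQ-2-ybbR (50 mM Hepes pH 7.6, 10 mM MgCl2). Rate came from the fluorescence difference over 30 min, ex 525/em 598 nm.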
D2 potentiator = potentiates the human D2 dopamine receptor allosterically. P14416. DiscoveRx D2 beta-arrestin cells, luminescence, 90 min; 100% = 57 uM dopamine signal. potentiation, % (no concentration beside the values). actives 0.23% (n = 360,000); active = potentiation of 50% or more; inconclusive = 30% to 50%; inactive = 30% or less;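 note: compound concentration not given in the record; tested on top of an EC20 dose of dopamine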
Target sequence (P14416 whole entry, looked up): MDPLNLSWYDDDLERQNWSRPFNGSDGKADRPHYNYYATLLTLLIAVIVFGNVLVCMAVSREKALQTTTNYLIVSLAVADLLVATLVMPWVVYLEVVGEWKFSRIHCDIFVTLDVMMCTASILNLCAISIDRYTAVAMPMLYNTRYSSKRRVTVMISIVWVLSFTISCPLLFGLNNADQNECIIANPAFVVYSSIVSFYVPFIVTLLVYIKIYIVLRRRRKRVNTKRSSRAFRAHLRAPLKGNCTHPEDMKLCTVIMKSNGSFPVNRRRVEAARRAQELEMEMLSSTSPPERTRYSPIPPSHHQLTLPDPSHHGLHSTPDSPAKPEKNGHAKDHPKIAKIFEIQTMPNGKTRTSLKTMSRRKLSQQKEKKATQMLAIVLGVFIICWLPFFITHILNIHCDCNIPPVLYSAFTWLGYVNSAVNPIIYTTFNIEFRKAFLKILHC
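PathHunter beta-arrestin assay in DiscoveRx D2 cells. Compounds were added with an EC20 of dopamine (50 nM final) for 90 min at 37 deg C. Luminescence was read 1 h after detection reagent, with 57 uM dopamine as the EC100 control.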
Starred values were filed as active, the others as inactive; ? = inconclusive; . = no result given; [ ] = another dose, or the depositor's remark.

#1 CCOc1cc(CNn2cnnc2)cc(Br)c1OCC(=O)NC1CCCCC1
#2 CC(=O)c1cccc(CN2CCCC(C(=O)Nc3ccc(-c4ccco4)cc3)C2)c1 (stereo unspecified)
#3 CCn1c2ccccc2c2cc(N=C3SC(CC(=O)Nc4ccccc4OC)C(=O)N3C)ccc21 (stereo unspecified)
#4 Nc1ncc(-c2nnnn2-c2ccc(Cl)cc2)c(-c2ccc(Cl)cc2)n1
#5 O=C1NCCCC1C(=O)N1CCN(C(=O)C2CCCNC2=O)CC1 (stereo unspecified)
#6 Cc1cc(C(=O)N2CCc3ccccc32)n(-c2ccccc2)n1
#7 C[C@H](NC(=O)[C@@H]1Cc2ccccc2CN1)C(=O)NC1CCCCC1
#8 Clc1ccc2oc(-c3ccccc3)nc2c1

assay / entry	1	2	3	4	5	6	7	8
gsp antag	-2.2%	-6.4%	-10.0%	2.7%	.	-7.2%	-1.1%	3.2%
TRPV1 potentiator	-4.0	-7.4	-0.3	3.1	19.3	-1.6	-7.2	-8.4
gsp agonist	-27.8%	23.2%	-13.8%	24.9%	.	24.2%	?	33.1%
ClpP mod	-1.5%	1.2%	-1.3%	-21.3%	.	-4.1%	-1.1%	-14.4%
Menin MLL FP FL	2.2	5.1	5.7	-3.7	1.1	-2.1	-1.7	-1.5
Sfp PPTase inh	14.4%	56.2µM*	2.0%	-5.7%	-10.9%	9.3%	-0.4%	18.0%
D2 potentiator	-2.2	-17.3	7.2	-2.5	.	6.9	-14.1	-6.0

#9 CC(=O)Nc1ccc(OCC(O)Cn2cccn2)cc1 (stereo unspecified)
#10 CCOc1ccc(C(=O)NCC(c2ccco2)N2CCc3ccccc3C2)cc1 (stereo unspecified)
#11 CN1CCCN(C(=O)c2cccc(Cl)c2)CC1
#12 CCC(=O)OCc1cc2cccc(C)c2[nH]c1=O
#13 COc1ccc(OCCC(=O)OCc2c(C)noc2C)cc1
#14 CCOC(=O)c1cc2cc3ccccc3cc2oc1=O
#15 O=C1c2ccccc2S(=O)(=O)N1CC(O)Cn1c2ccccc2c2ccccc21 (stereo unspecified)
#16 Cc1nc2c(ccc3c([N+](=O)[O-])cccc32)c(C)c1C

assay / entry	9	10	11	12	13	14	15	16
gsp antag	5.7%	-23.5%	5.8%	16.9%	-14.5%	-11.4%	-7.1%	5.3%
TRPV1 potentiator	-1.8	-6.9	-3.6	-6.6	-2.2	10.3	-1.2	29.7
gsp agonist	-17.5%	-40.0%[inhibitor]	?	-24.4%	-0.3%	-7.7%	-0.1%[15.4 µM]	-56.0%[inhibitor]
ClpP mod	1.1%	-0.7%	-0.3%	?	-1.6%	2.0%	-4.8%	1.9%
Menin MLL FP FL	-0.5	.	0.9	-0.4	0.4	-1.4	0.5	1.0
Sfp PPTase inh	4.3%	.	22.4%	1.5%	-2.7%	11.5%	19.2%	1.1%
D2 potentiator	-20.3	-11.9	-4.2	-7.7	5.5	-1.1	-6.6	1.4

An excerpt of these results, with two lines to a compound:
Under each structure – gsp antag	TRPV1 potentiator	gsp agonist	ClpP mod	Menin MLL FP FL	Sfp PPTase inh	D2 potentiator
#11 CN1CCCN(C(=O)c2cccc(Cl)c2)CC1
→ 5.8%	-3.6	?	-0.3%	0.9	22.4%	-4.2
#12 CCC(=O)OCc1cc2cccc(C)c2[nH]c1=O
→ 16.9%	-6.6	-24.4%	?	-0.4	1.5%	-7.7
#13 COc1ccc(OCCC(=O)OCc2c(C)noc2C)cc1
→ -14.5%	-2.2	-0.3%	-1.6%	0.4	-2.7%	5.5

The listing continues:
#17 C=CCNC(=O)C1=NOC(CNC(=O)c2c(-c3ccccc3Cl)noc2C)C1 (stereo unspecified)
#18 CCN(CC(=O)Nc1c(F)cccc1F)C(=O)CSCc1ccc(C)cc1
#19 O=C(Nc1cccc(O)c1)N1CCOCC1
#20 Cc1ccc(C)c(S(=O)(=O)Nc2nc(C)c(C(=O)Nc3ccccc3)s2)c1
#21 FC(F)(F)c1ccc2c(c1)nc1n2CCCC1
#22 COc1ccccc1CN1C2CCCC1CC(NC(=O)/C=C/c1ccccc1)C2 (stereo unspecified)
#23 N#Cc1cc(-c2ccccc2)cnc1Cl
#24 Cc1ccc(OCC(=O)Nc2ccc(S(=O)(=O)N3CCCC3)cc2)cc1

assay / entry	17	18	19	20	21	22	23	24
gsp antag	5.4%	.	2.2%	-29.6%	11.5%	6.4%	4.3%	0.1%
TRPV1 potentiator	-11.4	.	20.5	17.2	-16.7	-1.9	15.3	0.8
gsp agonist	-31.2%[inhibitor]	-45.0%[inhibitor]	0.1%	-51.8%[inhibitor]	-26.5%	10.3%[15.4 µM]	?	7.9%
ClpP mod	-0.6%	-1.8%	0.4%	-5.6%	1.2%	.	-0.8%	.
Menin MLL FP FL	-0.5	.	-1.1	1.0	5.6	-3.4	9.4	0.1
Sfp PPTase inh	-3.9%	.	3.0%	10.0%	5.4%	-0.2%	5.4%	-3.7%
D2 potentiator	-18.5	-5.2	8.0	3.0	-14.0	-15.9	-8.2	-0.8

#25 O=C(NCc1cccs1)C1CCCN(S(=O)(=O)c2cccs2)C1 (stereo unspecified)
#26 O=C(NCc1ccc(F)cc1)C1CCC(CNc2c(N3CCOCC3)c(=O)c2=O)CC1 (stereo unspecified)
#27 COCC(C)NC(=O)c1nn(Cc2ccccc2)c(=O)c2ccccc12 (stereo unspecified)
#28 CCOc1ccc(OCCCC(=O)O)cc1
#29 CCOc1ccc(NCC(=O)c2ccc(C)cc2)cc1
#30 CCOc1ccc(NC(=O)CN(C)C(=O)c2ccc(NC3CC3)c([N+](=O)[O-])c2)cc1OCC
#31 OC(COCC1COc2ccccc2O1)CN1CCN(c2ccccc2)CC1 (stereo unspecified)
#32 N#C/C(=C\c1ccc(Cl)cc1)C(=O)NC1CC1

assay / entry	25	26	27	28	29	30	31	32
gsp antag	-2.0%	-2.7%	5.8%	8.7%	3.0%	-3.9%	8.5%	10.6%
TRPV1 potentiator	19.5	1.8	-9.8	1.2	-14.8	2.0	0.1	.
gsp agonist	27.9%	-51.2%[inhibitor]	-18.9%	-17.0%	10.5%[15.4 µM]	-10.5%[15.4 µM]	-36.2%	-0.9%[15.4 µM]
ClpP mod	1.3%	-0.5%	8.2%	0.2%	-1.3%	.	-2.1%	-0.9%
Menin MLL FP FL	2.4	0.2	.	-1.6	3.0	.	-0.7	.
Sfp PPTase inh	-7.3%	8.5%	22.9%	7.2%	14.6%	.	-1.0%	.
D2 potentiator	-5.8	-12.1	-3.4	-18.2	2.8	4.4	-7.3	-1.5

#33 CC(=O)Nc1ccc(S(=O)(=O)NC2(C(F)(F)F)NC(=O)N(C3CCCC3)C2=O)cc1 (stereo unspecified)
#34 CCCc1cc(=O)[nH]c(SCC(=O)N(CCOC)c2c(N)n(Cc3ccccc3)c(=O)[nH]c2=O)n1
#35 CCOC(=O)c1sc(-c2cccc(C(F)(F)F)c2)nc1O
#36 CCCN(C(=O)CSCc1ccc(Cl)cc1)c1c(N)n(Cc2ccccc2)c(=O)[nH]c1=O
#37 C#CCOc1c(Br)cc(/C=N\NC(=O)CN2CCOCC2)cc1OCC
#38 CN=c1scc(-c2ccc(OC)cc2)n1/N=C(\C)c1cccnc1
#39 CC1(C)CC(=O)C(C(=S)Nc2ccccc2)=C(NCCN2CCOCC2)C1
#40 Oc1c(C(c2ccco2)N2CCN(C(c3ccccc3)c3ccccc3)CC2)sc2ncnn12 (stereo unspecified)

assay / entry	33	34	35	36	37	38	39	40
gsp antag	-6.0%	15.8%	-0.5%	5.7%	-1.3%	?	18.9%	-25.2%
TRPV1 potentiator	5.5	-1.4	3.7	?	-3.3	7.6	0.9	13.9
gsp agonist	8.8%	-6.2%	?	-31.2%[inhibitor]	-20.5%	-4.7%[15.4 µM]	0.6%	-7.6%
ClpP mod	1.4%	1.0%	1.3%	2.4%	-1.5%	-3.0%	1.4%	-0.3%
Menin MLL FP FL	0.9	.	?	.	3.2	6.7	2.1	4.1
Sfp PPTase inh	14.6%	.	-16.7%	.	12.9%	-21.1%	0.8%	50.1µM*
D2 potentiator	3.1	3.4	7.2	-14.0	3.4	-12.6	-11.7	1.8

#41 COc1ccc(NC(=O)Nc2ccccc2SC)cc1OC
#42 O=C(Nc1ccc2oc(-c3ccccc3F)nc2c1)c1ccc([N+](=O)[O-])o1
#43 O=C(CSc1ncnc2c1oc1ccccc12)N1CCCc2ccccc21
#44 Cc1ccc(NC(=O)c2cccc(N3C(=O)C4C5CCC(C5)C4C3=O)c2)c(C)c1 (stereo unspecified)
#45 c1ccc(SCCN2CCc3ccccc3C2)cc1
#46 COc1ccc(OC)c(NC(=S)N2CCN(C/C=C/c3ccccc3)CC2)c1
#47 O=CN1N=C(c2ccccc2)CC1c1ccc(Cl)cc1 (stereo unspecified)
#48 C/C(=N\NC(=O)CCC(=O)N/N=C(\C)c1ccc(C)o1)c1ccc(C)o1

assay / entry	41	42	43	44	45	46	47	48
gsp antag	-1.0%	4.4%	1.7%	-2.5%	-3.9%	-4.0%	-3.9%	-1.3%
TRPV1 potentiator	-19.5	2.3	-6.3	0.4	-1.0	3.3	2.8	.
gsp agonist	?	4.3%	4.9%	-1.5%	-50.7%[inhibitor]	-24.2%	?	-21.5%
ClpP mod	-0.1%	0.6%	-1.8%	1.1%	-4.9%	0.4%	.	1.1%
Menin MLL FP FL	-1.5	6.0	0.4	-0.5	17.2	-1.4	-2.1	.
Sfp PPTase inh	-28.4%	0.3%	-5.1%	12.5%	-11.6%	-10.9%	10.3%	.
D2 potentiator	-2.8	-2.4	-5.0	-6.8	-16.1	-31.2	0.8	-3.0

2 of these compounds in another layout.
Values in the order: gsp antag, TRPV1 potentiator, gsp agonist, ClpP mod, Menin MLL FP FL, Sfp PPTase inh, D2 potentiator
#42 O=C(Nc1ccc2oc(-c3ccccc3F)nc2c1)c1ccc([N+](=O)[O-])o1
  4.4%, 2.3, 4.3%, 0.6%, 6.0, 0.3%, -2.4
#43 O=C(CSc1ncnc2c1oc1ccccc12)N1CCCc2ccccc21
  1.7%, -6.3, 4.9%, -1.8%, 0.4, -5.1%, -5.0
